# nsP2pro primary = inhibitors of chikungunya virus nsP2 protease; FRET peptide cleavage, nsP2pro, fluorescence 1 h; Potency, µM (titrated, usually from 24.9 µM), for inactives: at the highest dose activity change, negative = inhibition, actives largely listed as inhibitors; 31,000 tested, 1.1% active; AID 1964107; active means well fitted inhibition curve with a large enough effect; inconclusive means small, poorly fitted or top-dose-only effect; inactive means no such curve, though single readings can be large or run the other way; note: nearly all actives have a fitted effect of over 60% in size; a reference inhibitor and vehicle were the controls
# * = called active by the depositor; i = inactive; ? = inconclusive; [ ] = another dose, or the depositor's remark. % is set by controls: 0 for no effect and ±100 for the full control effect; potency is the fitted concentration of half-maximal effect. Some of the compounds tested; the hit share may differ from the screen's.
SMILES,nsP2pro primary
Brc1cccc(-c2nn(-c3ccccc3)c3c2cnc2cc4c(cc23)OCO4)c1,-25.3%
CC(C)Oc1ccc(CNC(=O)CN2C(=O)CCc3cc(S(=O)(=O)N4CCCCC4)ccc32)cc1,-17.5%
O=C(c1ccc2c(c1)N(Cc1ccc(Cl)cc1)C(=O)c1ccccc1S2(=O)=O)N1CCN(Cc2ccccc2)CC1,-11.7%
O=C(Cc1cccc(F)c1)NCc1nnc2cc(-c3nc(C4CC4)no3)ccn12,-0.5%
CC1=C[C@@H](CNS(C)(=O)=O)[C@H](C(C)C)C[C@H]1CC(=O)O,-14.1%[39.2 µM]
O=c1[nH]ccc2c(S(=O)(=O)N3CCCNCC3)cccc12,8.9%
CS(=O)(=O)N[C@H]1C[C@H]2C(=O)NC[C@@H](CCC(=O)N3CCCCC3)N2C1,i
NC(=O)C1CCN(c2nc(-c3ccccc3Cl)cs2)CC1,1.0%
Cc1ccc(N2CCN(C(=O)c3cc(S(=O)(=O)N4CCCCC4)c[nH]3)CC2)c(C)c1,-12.2%
O=C(CSCc1ccc(F)cc1)N1CCc2c([nH]c3ccccc23)C1c1ccccc1 (stereo unspecified),-13.5%
CN1CCC(=C2c3ccccc3CCc3cccnc32)CC1,-7.2%
COc1ccc([C@@]2(O)c3c(ccc4c3OC(C)(CCC=C(C)C)C=C4)NC(=O)[C@@H]2OC)cc1 (stereo partly specified),-13.6%[10 µM]

# 4 entries from above, as labelled records.
> O=C(c1ccc2c(c1)N(Cc1ccc(Cl)cc1)C(=O)c1ccccc1S2(=O)=O)N1CCN(Cc2ccccc2)CC1
  nsP2pro primary = -11.7%

> COc1ccc([C@@]2(O)c3c(ccc4c3OC(C)(CCC=C(C)C)C=C4)NC(=O)[C@@H]2OC)cc1 (stereo partly specified)
  nsP2pro primary = -13.6%[10 µM]

> O=C(Cc1cccc(F)c1)NCc1nnc2cc(-c3nc(C4CC4)no3)ccn12
  nsP2pro primary = -0.5%

> Brc1cccc(-c2nn(-c3ccccc3)c3c2cnc2cc4c(cc23)OCO4)c1
  nsP2pro primary = -25.3%

# (cont.)
SMILES,nsP2pro primary
O=C1CC(c2ccccc2)Sc2nc(-c3ccc(F)cc3)nn21 (stereo unspecified),-22.4%
Cc1nc(C)c(CC(=O)N2CCCC(C)(Cc3ccc4c(c3)OCO4)C2)s1 (stereo unspecified),2.6%
CC(C)NC(=O)c1ccccc1OCC1CCCN(Cc2cn(C)c3ccccc23)C1 (stereo unspecified),-24.4%
CC(C)C(=O)OCC(=O)[C@@]12OC(C3CCCCC3)O[C@@H]1C[C@H]1[C@@H]3CCC4=CC(=O)C=C[C@]4(C)[C@H]3[C@@H](O)C[C@@]12C (stereo partly specified),-6.6%
COC1=C2C[C@H](C)C[C@H](OC)[C@H](O)[C@@H](C)/C=C(/C)[C@H](OC(N)=O)[C@@H](OC)/C=C\C=C(\C)C(=O)NC(=CC1=O)C2=O,12.4µM*
Cc1ccc(N2CCN(C(=O)CCc3c(C)nc4c(c3C)c(=O)n(C)c(=O)n4C)CC2)c(C)c1,-6.6%
Cc1ccccc1-n1cc(CNC(=O)C(c2cccc(F)c2)N(C)C)cn1 (stereo unspecified),-2.3%
CCOC(=O)c1c(C)oc2ccc(N(C(=O)c3ccncc3)S(=O)(=O)c3ccc(Br)cc3)cc12,-2.3%
Cc1ccc(CN2C(=O)C3(c4ccccc42)N(c2ccc(C)c(Cl)c2)C(=O)CS3(=O)=O)cc1 (stereo unspecified),-14.2%
Cc1ccccc1S(=O)Cc1ccc(C(=O)NCc2ccccc2Cl)o1 (stereo unspecified),-14.9%
CC(C)Nc1nc(Nc2ccccc2)nc(-c2ccccc2)n1,-4.9%
CCOC(=O)c1ccc(NC(=O)CC2C(=O)N(c3ccccc3)C(=O)N2Cc2ccc(C)cc2)cc1 (stereo unspecified),-13.2%
Cc1occc1C(=O)N1CCCC(O)(CNC(=O)N2CCOCC2)CC1 (stereo unspecified),-8.6%
CCOc1ccc(NC(=O)NCCCN2CCN(c3ccc(OC)cc3)CC2)cc1,-11.5%
CC(C)=C1C[C@@]2(C)C(=CC1=O)CC[C@@H](O)[C@@H]2C,-13.3%
Cc1ccc(C)c(NC(=O)Cn2ccn3nc4c(c3c2=O)CCCCC4)c1,-10.3%
Nc1ncnc2c1ncn2[C@@H]1O[C@@H]2COP(O)(=S)O[C@H]2[C@H]1O (stereo partly specified),?
C[C@H](Cn1cnc2c(N)ncnc21)OCP(=O)(O)O,?
CN1[C@@H](CCC(=O)NCc2ccco2)CNC(=O)[C@@H]2[C@H]1CCN2Cc1nc2ccccc2n1C,i
COc1cccc(NS(=O)(=O)c2ccc(NCc3cccc(OC)c3O)cc2)c1,i
Cc1cccc(C(=O)N2CCCCCCN(C)C(=O)[C@@H]3CCC[C@@H]32)c1,i
COc1cc(OC)cc(C(=O)Nc2ccc(Cl)c(-c3nc4ccc(N(C)C)cc4[nH]3)c2)c1,10.4%
CN1[C@H]2CC[C@@H]1[C@@H](C(=O)O)[C@@H](OC(=O)c1ccccc1)C2,-2.9%[39.2 µM]
COCC1OC(=O)c2coc3c2C1(C)C1=C(C3=O)C2CCC(=O)C2(C)CC1O (stereo unspecified),-15.3%
CCN(Cc1ccccc1)c1ccc(Br)cn1,-1.4%
O=C(NCCc1nc2ccccc2n1CCOc1ccccc1[N+](=O)[O-])C1CCCCC1,-17.0%
C[C@H]1O[C@@H](O[C@H]2CC[C@@]3(C)C(CC[C@]4(C)C3CC=C3C5CC(C)(C)CC[C@]5(C(=O)O)CC[C@]34C(=O)O)C2(C)C)[C@H](O)[C@@H](O)[C@@H]1O (stereo partly specified),6.0%[10 µM]
CCCCOC(=O)/C(C#N)=C/c1ccc(-c2cccc(C(F)(F)F)c2)o1,-26.2%
O=S(=O)(Nc1cccc2cccnc12)c1ccc(Br)cc1,i
CC1CCN(C(=O)Cn2c(=O)n(CCCCCC(=O)NCc3ccccc3Cl)c(=O)c3sccc32)CC1,-14.5%
Cc1noc(-c2ccc(C(C)(C)C)cc2)c1C(=O)NCCOc1ccccc1,1.8%
CC1CCC2C(C(=O)O)=CC3CC(C)(C)CC132 (stereo unspecified),-3.2%
CS(=O)(=O)N1CCc2cc(C(=O)N3CCN(c4ccc(F)cc4)CC3)ccc21,-24.0%
CC(=O)c1ccc(NC(=O)c2cn3c4c(ccc(Cl)c4c2=O)OC(C)C3)cc1 (stereo unspecified),-2.3%
O=C(Nc1ccc2ccccc2c1)Nc1nnc(C2CCCCC2)s1,-2.5%
Cc1c(NC(=O)N2CCOCC2)ccc2c1c1ccccc1n2C(C)C,-10.1%
Cc1cc(C)cc(NC(=O)Nc2cccs2)c1,?
CCNC(=O)N1CC(C(=O)NCc2cccc(C)c2)CC(c2ccc(F)c(C)c2)C1 (stereo unspecified),3.8%
CC(C)CCCC(C)CCCC(C)CCCCC(C)CCCC(C)CCCC(C)C (stereo unspecified),-9.0%
CCCOc1ccc(C2SCC(=O)Nc3c2c(C)nn3-c2cccc(C)c2)cc1OC (stereo unspecified),-6.9%
Cn1c(=O)c2nc(/C=C/c3cccc(Cl)c3)n(C)c2n(C)c1=O,12.0%[39.2 µM]
COCc1ncc(C)n1CC1CCN(C(=O)C2(c3ccc(OC)cc3)CC2)CC1,i
Cc1c(-c2ccc(-c3ccccc3F)cc2)nc2ccc(F)cc2c1C(=O)O,?
c1cncc(-c2ccnc(NCC(c3cccnc3)N3CCCCC3)n2)c1 (stereo unspecified),4.0%
Cc1ccc(C)c(CN2C(=O)c3ccccc3S(=O)c3ccc(C(=O)N4CCOCC4)cc32)c1 (stereo unspecified),-5.2%
Cc1ccc(C(=O)N2CCc3cc(CNS(=O)(=O)c4ccc(Cl)s4)ccc32)cc1,-14.4%
Cn1cc(OCC(O)CNC(C)(C)C)c2ccccc2c1=O (stereo unspecified),-5.3%
CN[C@H]1CCN(C(=O)c2ccc(Nc3ncc(F)c(-c4cnc(C)n4C(C)C)n3)cc2)C1,85.0%[activator]
CCCCc1ccc(NS(=O)(=O)c2ccc(F)cc2)cc1,-8.7%
CCc1ccc(NS(=O)(=O)c2ccc3[nH]c4c(c3c2)CCCCCC4)cc1,-19.0%
Cc1ccc(NC2=N[C@H]3[C@@H](O)[C@H](O)C[C@H](C(=O)NCc4cccnc4)[C@H]3S2)cc1,i
O=C(Cn1c(=O)oc2ccccc21)Nc1ccc(C(=O)O)cc1,-18.4%
Cc1ccc2occ(-c3cc(-c4ccc(F)cc4)nc4c3COc3ccc(F)cc3-4)c(=O)c2c1,52.0%[activator]
CO[C@@H]1[C@@H](OC(N)=O)[C@@H](O)[C@H](Oc2ccc3c(O)c(NC(=O)c4ccc(O)c(CC=C(C)C)c4)c(=O)oc3c2C)OC1(C)C,13.6%
CCOC(=O)c1ccc(NC(=O)c2nc(SCc3ccc(F)cc3)ncc2Cl)cc1,?
CN(C(=O)CSc1nc2ccccc2n1CC(=O)N(C)C1CCCCC1)c1ccc(F)cc1,-8.6%
Cc1ccc(-c2cc(C(=O)Oc3ccccc3)c3cccc(C)c3n2)cc1,-16.0%
CN(C)c1ccc(C(=C2C=CC(=[N+](C)C)C=C2)c2ccc(N(C)C)cc2)cc1,-11.4%
CC1=C2C[C@H]3[C@@H](CC=C4C[C@@H](O)CC[C@@]43C)[C@@H]2CC[C@]12O[C@@H]1C[C@H](C)CN[C@H]1[C@H]2C,-6.8%
Cn1cc(-c2ccc3nnc(Sc4ccc5nn(C)cc5c4)n3n2)cn1,6.4%
# (cont.)
SMILES,nsP2pro primary
CCOc1ccc(CCNC(=O)c2ccc(C3(C(F)(F)F)N=N3)cc2)cc1OCC,-6.6%
C(=C\c1ccccc1)/CN1CCN(c2nccc(-c3cccnc3)n2)CC1,i
CC(=O)[O][Al][O]C(C)=O,-5.7%[5.1 µM]
O=C(Nc1ccc(NC(=O)c2cc3ccccc3o2)cc1)c1ccccc1,-20.0%
COc1cccc(CNC(=O)Cn2c(=O)oc3cc(S(=O)(=O)N4CCCCCC4)ccc32)c1,-4.8%
CC1(C)[C@H](Cc2cc(COc3ccccc3)on2)C[C@@H]1NC1CCC1,i
O=C(NCCC1=CCCCC1)c1ccc2c(c1)N(Cc1cccc(Cl)c1)C(=O)c1ccccc1S2(=O)=O,-12.1%
COc1ccc(C2CC(=O)c3cc(-c4nc(-c5cccc([N+](=O)[O-])c5)cs4)c(=O)n(-c4ccccc4N)c3C2)cc1 (stereo unspecified),15.6%
COc1ccc2cc1Oc1ccc(cc1)C[C@H]1c3cc(c(OC)cc3CCN1C)Oc1c(OC)c(OC)cc3c1[C@H](C2)N(C)CC3,86.3%[activator]
CC(=O)c1cccc(NC(=O)CN(c2cc(C)cc(C)c2)S(=O)(=O)c2c(C)noc2C)c1,1.2%
Cc1ccc(NS(=O)(=O)c2cc(Br)cc3c2N(C(=O)C2CC2)CC3)cc1C,-14.8%
CCOC(=O)C1CCN(C(=O)Cn2nc(C)n3c(cc4c(OC)cccc43)c2=O)CC1,-14.4%

# In another format: results already given.
SMILES | nsP2pro primary
Cc1ccccc1-n1cc(CNC(=O)C(c2cccc(F)c2)N(C)C)cn1 (stereo unspecified) | -2.3%
Cn1c(=O)c2nc(/C=C/c3cccc(Cl)c3)n(C)c2n(C)c1=O | 12.0%[39.2 µM]
CN(C(=O)CSc1nc2ccccc2n1CC(=O)N(C)C1CCCCC1)c1ccc(F)cc1 | -8.6%
O=C(c1ccc2c(c1)N(Cc1ccc(Cl)cc1)C(=O)c1ccccc1S2(=O)=O)N1CCN(Cc2ccccc2)CC1 | -11.7%

# (next part)
SMILES,nsP2pro primary
O=C(c1ccccn1)N1C[C@@H]2C[C@H](C1)c1ccc(NS(=O)(=O)c3cccc(F)c3)c(=O)n1C2,-5.8%
COc1cc(C(=O)OCC2=CCC3C(C(=O)O)=COC(O[C@@H]4O[C@H](CO)[C@@H](O)[C@H](O)[C@H]4O)C23)ccc1O (stereo partly specified),10.8%[10 µM]
COc1c2c(c(C)c3c1C(=O)OC3)OC1(C)CC(O)C34OC(O)(CCC3(C)C1C2)OC4(C)C (stereo unspecified),-0.2%[10 µM]
FC(F)(F)c1ccc(N2CCNCC2)nc1Cl,-3.4%
COCCCN1CCC(CNc2nccc(-c3cnn(C)c3)n2)C1 (stereo unspecified),i
Cc1sc(NC(=O)Cc2ccc3c(c2)OCO3)nc1-c1ccc2c(c1)CCN2C,-12.6%
COC1=CC(=O)C=C(C)C12Oc1c(Cl)c(OC)cc(OC)c1C2=O (stereo unspecified),-14.1%
CN1CCC(OC2CCN(C(=O)c3cccc(F)c3)CC2)CC1,0.1%
CNc1cccc(S(=O)(=O)N2CCCN(S(=O)(=O)c3ccc4c(c3)OCCO4)CC2)c1,-16.5%
NCCc1c[nH]c2ccc(O)cc12,?
CC(C)c1nc(-c2ccc(C(=O)N[C@@H]3COCC[C@@H]3OCC3CC3)cc2)no1,-3.6%
COC(=O)[C@H](NC(=O)[C@@H]1C[C@@H](NC(=O)CSC)CCN1S(=O)(=O)c1ccc(OC)cc1)C(C)C,4.9%
Cc1cc(Cl)ccc1NC(=O)C1CCCN1S(=O)(=O)c1ccc2c(c1)CCCC(=O)N2 (stereo unspecified),0.0%
CCCC(=O)C1CCN(c2ncnc3c2CN(C(=O)c2ccc(-c4ccccc4)cc2)CC3)CC1,-0.3%
O=C([C@H](Cc1ccc(O[S+](=O)([O-])c2cccc3cnccc23)cc1)N[S+](=O)([O-])c1cccnc1)N1CCN(c2ccccc2)CC1,-0.5%
C[C@@H](O)[C@H](N)C(=O)O,-7.8%[10 µM]
C=C1CCC2[C@](C)(CO)C(O)CC[C@]2(C)C1C/C=C1/C(=O)OCC1O (stereo partly specified),-15.5%
CN(CC1CCOC1)S(=O)(=O)c1cccs1 (stereo unspecified),-3.1%
C[S+](C)CCC(N)C(=O)O (stereo unspecified),11.9%
CN(CC(=O)NCc1ccc(F)cc1)S(=O)(=O)c1ccc2[nH]c3c(c2c1)CCCC3,-29.2%
COCCn1c2c(c(=O)n1-c1ccccc1)CCN(Cc1cccc(C#N)c1)C2,i
CC(NC(=O)CN1C(=O)c2cccnc2Oc2ccc(Cl)cc21)c1ccccc1 (stereo unspecified),-16.2%

# Bioassay records from PubChem BioAssay.
